# Compound activity: PubChem BioAssay, National Center for Advancing Translational Sciences (NCATS)
# D2 potentiator: human D2 receptor positive allosteric modulation; potentiation, % (no concentration beside the values); 360,000 compounds, 0.23% hits; DiscoveRx D2 beta-arrestin cells, luminescence, 90 min; 100% = 57 uM dopamine signal; active = potentiation of 50% or more; inconclusive = 30% to 50%; inactive = 30% or less;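 note: compound concentration not given in the record; tested on top of an EC20 dose of dopamine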
# Target sequence (P14416 whole entry, looked up): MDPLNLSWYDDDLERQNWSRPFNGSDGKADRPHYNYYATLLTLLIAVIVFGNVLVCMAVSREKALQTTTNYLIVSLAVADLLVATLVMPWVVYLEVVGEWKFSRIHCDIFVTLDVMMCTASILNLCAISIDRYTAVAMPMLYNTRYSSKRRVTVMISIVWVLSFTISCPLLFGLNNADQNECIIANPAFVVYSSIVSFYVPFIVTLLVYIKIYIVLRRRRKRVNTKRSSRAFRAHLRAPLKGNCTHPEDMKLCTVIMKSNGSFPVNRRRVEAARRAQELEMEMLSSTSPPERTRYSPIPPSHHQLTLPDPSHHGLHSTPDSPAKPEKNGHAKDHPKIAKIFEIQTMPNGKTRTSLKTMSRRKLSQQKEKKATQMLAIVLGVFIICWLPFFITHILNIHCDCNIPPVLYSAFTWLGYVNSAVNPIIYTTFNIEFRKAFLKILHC
#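 PathHunter beta-arrestin assay in DiscoveRx D2 cells. Compounds were added with an EC20 of dopamine (50 nM final) for 90 min at 37 deg C. Luminescence was read 1 h after detection reagent, with 57 uM dopamine as the EC100 control.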
# TRPV1 PAM: human TRPV1 potentiation | Q8NER1 | TRPV1-expressing cells, Fluo-8 calcium influx, capsaicin EC20 potentiation; host cell line not named in the record; control for the full effect not named in the record | potentiation, % at 8.33 µM | 320,000 compounds, 0.02% hits; active means potentiation above 80%; inconclusive means 30% to 80%; inactive means below 30%; note: 0% is about no effect
#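 TRPV1-expressing cells were cultured overnight at 35.5C and loaded with Fluo-8 calcium dye for 40 to 90 min at room temperature. After a 10 s baseline, compound was added and calcium influx was read kinetically for 3 min (ex 480/em 520 nm).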
# CtBP-E1A blk: blocks the CtBP interaction with E1A | 340,000 compounds, 0.49% hits | activity change, % (no concentration beside the values) | AlphaScreen GST-E1A/His-CtBP binding, 1536-well; active compounds read low; control for the full effect not named in the record; in the data active means activity change below about -65%; inconclusive means about -30% to -65%; inactive means above about -30%; note: % is set by controls: 0 for no effect and ±100 for the full control effect
#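 GST-E1A and His-tagged CtBP (125 nM each as 5X stock) were preincubated with pin-transferred compound for 2 h at 37 °C in the dark, then glutathione donor and nickel acceptor beads were added for 1 h before AlphaScreen reading.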
# Six1-Eya2 blk: blocks human Six1 binding to Eya2; AlphaScreen GST-Six1/His-Eya2 binding, biochemical; active compounds read low; control for the full effect not named in the record; activity change, % (test concentration not listed); 360,000 compounds, 0.56% hits; in the data active = activity change below about -65%; inconclusive = about -30% to -65%; inactive = above about -30%; note: % is set by controls: 0 for no effect and ±100 for the full control effect
#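 GST-Six1 + His-Eya2 (5X stock: 250/500 nM); Tris pH 8.0, 300 mM NaCl, 0.05% BSA, 0.02% Tween 20; GSH donor/Ni acceptor beads; 1 h 37 °C dark; AlphaScreen readout.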
# TRPML1 agonist: activates the human TRPML1 channel. Q9GZU1. TRPML1-expressing cells, Ca2+ dye fluorescence, FDSS; host cell line not named in the record; reference of the full effect not given here. activation, % (test concentration not listed). 410,000 compounds, 0.12% hits; in the data active = activation above about 50%; inconclusive = about 30% to 50%; inactive = below about 30%; note: 0% is about no effect; the text of the record puts the active cut at 80%
# Target sequence (Q9GZU1 whole entry, looked up): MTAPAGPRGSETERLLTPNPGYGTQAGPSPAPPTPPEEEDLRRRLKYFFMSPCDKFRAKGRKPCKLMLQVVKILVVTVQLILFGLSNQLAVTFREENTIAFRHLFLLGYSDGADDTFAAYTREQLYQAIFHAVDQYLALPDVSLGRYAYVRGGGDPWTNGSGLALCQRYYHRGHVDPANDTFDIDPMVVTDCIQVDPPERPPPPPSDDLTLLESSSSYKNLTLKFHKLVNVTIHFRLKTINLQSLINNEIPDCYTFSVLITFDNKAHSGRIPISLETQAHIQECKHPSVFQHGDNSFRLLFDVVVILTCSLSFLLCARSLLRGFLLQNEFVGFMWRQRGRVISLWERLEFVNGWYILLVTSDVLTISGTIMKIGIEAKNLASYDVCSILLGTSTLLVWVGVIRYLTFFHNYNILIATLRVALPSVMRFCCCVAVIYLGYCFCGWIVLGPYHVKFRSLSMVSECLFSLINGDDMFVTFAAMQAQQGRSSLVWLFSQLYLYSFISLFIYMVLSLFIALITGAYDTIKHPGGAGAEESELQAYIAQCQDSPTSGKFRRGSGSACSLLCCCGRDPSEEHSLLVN
#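 In this qHTS format, compounds were pin-transferred onto Ca8-dye-loaded TRPML1-DL cells induced with Tet overnight, and intracellular Ca2+ fluorescence was recorded kinetically for 110 s after a 10 s baseline. A subsequent 4uM final 54-4 (EC80) addition followed by a second 110 s read served as the antagonist phase.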
# TRPML1 blocker: inhibitors of human TRPML1 channel; Q9GZU1; TRPML1-inducible cells, Ca2+ dye fluorescence, FDSS; active compounds read low; inhibition of EC80 agonist-evoked calcium signal; activity change, negative = inhibition, % (concentration not given with the values); 390,000 compounds, 0.02% hits; in the data active means activity change below about -50%; inconclusive means about -30% to -50%; inactive means above about -30%;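 note: stimulus is agonist 54-4 at its EC80 concentration; % is set by controls: 0 for no effect and ±100 for the full control effect; the text of the record puts the active cut at -80%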
#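 Calcium fluorescence in TRPML1-DL cells induced overnight with Tet: a 110 s read after compound pin addition, then a 110 s antagonist read after challenge with 54-4 at 4 uM final (EC80).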
# The depositor's hits bear a star; ? = inconclusive; . = no result given.
SMILES,D2 potentiator,TRPV1 PAM,CtBP-E1A blk,Six1-Eya2 blk,TRPML1 agonist,TRPML1 blocker
COC(=O)C(NS(=O)(=O)c1ccc(N2CCCC2=O)cc1)c1ccccc1 (stereo not drawn),4,0,-6,0,0.5,0
CCCCn1nc(C(=O)NCC(=O)Nc2c(C)cccc2C)c2ccccc2c1=O,-15,18,-1,-3,0.9,7
Nn1c(SCc2ccc(Br)cc2)nnc1-c1ccncc1,-7,-7,4,3,3.6,8
CCCN(CCC)CCNS(=O)(=O)c1ccc2c(c1)CCN2C(=O)C1CCC1,-6,-4,2,3,0.2,-1
c1nc(CCO[C@H]2CCCCO2)cc2cc3c(cc12)OCO3,-4,.,2,-1,3.2,-19
Cc1nn2c(-n3ccnc3C)c3c(nc2c1-c1ccccc1)CCC3,2,-1,1,-1,0.0,8
Cc1cccc(C(C)C)c1NC(=O)c1ccc(CN(c2ccccc2)S(=O)(=O)c2ccccc2)cc1,9,-32,-9,11,2.4,74
COc1cccc(Nc2ccc(C(=O)O)cc2N)c1,12,25,-1,-1,-0.7,20
Cc1ccc(O)c(C(=O)c2cc(C#N)c(=O)n(C(C)c3ccccc3)c2)c1 (stereo not drawn),-3,9,-2,-9,-0.4,-2
CCN(c1ccccc1)S(=O)(=O)c1cccc(C(=O)NCCN2CCOCC2)c1,-3,-15,2,4,0.1,11
COc1ccc(CCN2CC(C(=O)OCC(=O)Nc3c(C)nn(-c4ccccc4)c3C)CC2=O)cc1OC (stereo not drawn),-5,11,14,-6,0.4,-2
CN(C)S(=O)(=O)c1cccc(C(=O)Nc2ccccc2N2CCCCC2)c1,0,-7,3,2,2.6,67
COc1cc(C(=O)Nc2ccc(S(=O)(=O)Nc3cc(C)on3)cc2)cc(OC)c1OC,-4,10,-1,3,-0.8,41
O=C(O)c1ccc2c3c(cccc13)C(=O)N(c1ccccc1)C2=O,9,0,-2,5,1.1,-7
Cc1nnc(SCC(=O)NNC(=O)c2ccccc2)n1Cc1ccccc1,-4,.,-1,0,-0.2,-7
OC(CCN1CCOCC1)(c1ccc(Cl)cc1)C1CCCCC1 (stereo not drawn),-6,-9,6,-5,-0.1,24
CC(C)c1nc(Cl)c(C#N)c2c1CCCC2,-10,3,8,-2,1.6,-5
Cc1csc(C(=O)O)c1NC(=O)c1c(Cl)cccc1Cl,8,1,2,0,0.8,-12
Cc1nn2c(N)c(C#N)cnc2c1-c1ccccc1,-17,10,-1,-4,-0.4,-13
Cc1ccc2c(c1)COc1c3ccc(C(=O)N[C@@H](CO)C(C)C)cc3nn1-2,-7,16,-13,-7,-0.3,7

# Compound profiles (already shown).
# COc1cc(C(=O)Nc2ccc(S(=O)(=O)Nc3cc(C)on3)cc2)cc(OC)c1OC reads D2 potentiator: -4; TRPV1 PAM: 10; CtBP-E1A blk: -1; Six1-Eya2 blk: 3; TRPML1 agonist: -0.8; TRPML1 blocker: 41
# CN(C)S(=O)(=O)c1cccc(C(=O)Nc2ccccc2N2CCCCC2)c1 reads D2 potentiator: 0; TRPV1 PAM: -7; CtBP-E1A blk: 3; Six1-Eya2 blk: 2; TRPML1 agonist: 2.6; TRPML1 blocker: 67
# OC(CCN1CCOCC1)(c1ccc(Cl)cc1)C1CCCCC1 (stereo not drawn) reads D2 potentiator: -6; TRPV1 PAM: -9; CtBP-E1A blk: 6; Six1-Eya2 blk: -5; TRPML1 agonist: -0.1; TRPML1 blocker: 24

# 3 entries out of the list, ordered by molecular weight, rising.
SMILES,D2 potentiator,TRPV1 PAM,CtBP-E1A blk,Six1-Eya2 blk,TRPML1 agonist,TRPML1 blocker
Cc1nn2c(N)c(C#N)cnc2c1-c1ccccc1,-17,10,-1,-4,-0.4,-13
O=C(O)c1ccc2c3c(cccc13)C(=O)N(c1ccccc1)C2=O,9,0,-2,5,1.1,-7
Cc1nnc(SCC(=O)NNC(=O)c2ccccc2)n1Cc1ccccc1,-4,.,-1,0,-0.2,-7

# The list continues:
SMILES,D2 potentiator,TRPV1 PAM,CtBP-E1A blk,Six1-Eya2 blk,TRPML1 agonist,TRPML1 blocker
CCOC(=O)c1cc(C#N)c(Oc2ccc(F)cc2)nc1-c1ccccc1,13,-3,25,0,1.2,-1
O=C(NCc1ccncc1)[C@@H]1CCCN1C(=O)[C@H]1CCCN1C(=O)c1cccc(Cl)c1,.,.,-3,4,-0.2,.
CC1CC(=O)c2c(cc3c(-c4c(O)cc(O)c5c(O)c6c(cc45)OC(C)CC6=O)c(O)cc(O)c3c2O)O1 (stereo not drawn),-36,3,?,?,.,.
CCOc1ccc(-c2ccc(SC)nn2)cc1,2,7,1,-3,1.3,-12
CC(CNC(=O)COC(=O)c1ccco1)c1ccccc1 (stereo not drawn),-1,-2,.,5,-0.1,-9
COC(=O)C1=C(C(=O)OC)[C@@H]2N(C)c3ccccc3[C@@]23C[C@@H](C(=O)OC)N=C3N1,-2,29,8,2,0.4,27
Cc1cc(NC(=O)c2cc(C3CC3)on2)no1,-1,-4,-11,3,0.0,-2
O=c1[nH]c(N2CCOCC2)cc2ccccc12,-17,.,3,12,-1.0,36
C=CCC[C@H](Cc1ccc(F)cc1)C(=O)OC[C@@H](Cc1c[nH]c2ccccc12)NC(=O)[C@@H](CC=C)CC(=O)N[C@@H](CO)Cc1ccccc1,1,.,-3,-8,0.5,-19
O=C1Nc2ccccc2O/C1=C\c1ccccc1Br,-1,9,8,9,1.7,24
Cc1cc(NC(=O)Nc2ccc(Cl)cc2)n(-c2ccccc2)n1,-12,18,7,-10,-0.5,-11
O=C1c2ccccc2C(=O)N1CCSc1nncs1,-12,0,11,2,-0.3,6
CC(C)(C)OC(=O)NC1CC2CCCC(C1)N2Cc1ccccc1 (stereo not drawn),-43,-22,-3,-23,-0.9,-5
CCN1C(=O)C(CC(=O)Nc2ccc(C)cc2C)Nc2cc(S(=O)(=O)N(C)C)ccc21 (stereo not drawn),-21,0,.,1,3.2,-7
O=C(/C=C/[C@H]1O[C@@H](n2ccc(=O)[nH]c2=O)[C@H](O)[C@@H]1O)NCc1ccccc1,-2,.,-7,12,0.5,4
CC(=O)Nc1nc(-c2ccc([N+](=O)[O-])cc2)cs1,-3,2,.,3,0.3,-9
O=C(c1ccco1)N1CCc2[nH]nc(-c3ccccc3)c2C1,0,4,.,6,0.4,-7
Cc1cc([N+](=O)[O-])c(=O)[nH]c1C,-12,.,2,4,-0.4,-13
CCOc1ccc(NC(=O)CN2C(=O)COc3ccccc32)cc1,-2,11,8,1,0.2,3
Cc1cccc(OCCCC(=O)NCc2ccco2)c1,-5,-11,-6,-1,-0.2,6
COc1cccc(CNc2nnnn2C)c1OC,-5,19,7,-1,0.7,17
Cc1n[nH]c(=O)nc1Nc1ccc(O)cc1,-14,3,8,3,-0.6,9
Cc1ccc(C(=O)Nc2nc(N)n(-c3ccccc3)n2)cc1,-1,-1,1,-16,-0.5,-14
COC(=O)CNC(=O)CSc1nnc2cc(C)c3ccccc3n12,1,2,-1,-16,.,.
COc1cc(NC(=O)c2cc([N+](=O)[O-])ccc2NC(=O)CNCc2ccccn2)cc(OC)c1,6,28,-84*,-91*,-0.2,-13
Cc1ccnc(NC(=O)c2ccc(COc3c(F)c(F)cc(F)c3F)o2)c1,-3,20,3,-4,2.0,-14
Nc1cccc(S(=O)(=O)c2ccc(N)c(N)c2)c1,-10,-4,7,6,0.2,24
COc1cccc(N=Nc2c(=O)[nH]n3c(=O)cc(C)[nH]c23)c1,-18,3,-17,0,-1.2,32
Cc1nn2c(c1-c1ccccc1)NC1=C(C(=O)CCC1)C2c1ccccc1 (stereo not drawn),-4,-6,6,0,2.6,-1
CC(=O)Oc1ccc(-c2ccc(C(=O)Nc3cccc(S(=O)(=O)N4CCOCC4)c3)cc2)cc1,1,2,1,-23,1.2,29

# An excerpt from above in order of their number in D2 potentiator, smallest number first:
structure,D2 potentiator,CtBP-E1A blk,Six1-Eya2 blk,TRPML1 blocker
COc1cccc(N=Nc2c(=O)[nH]n3c(=O)cc(C)[nH]c23)c1,-18,-17,0,32
COc1cccc(CNc2nnnn2C)c1OC,-5,7,-1,17
COC(=O)CNC(=O)CSc1nnc2cc(C)c3ccccc3n12,1,-1,-16,.

# More compounds:
SMILES,D2 potentiator,TRPV1 PAM,CtBP-E1A blk,Six1-Eya2 blk,TRPML1 agonist,TRPML1 blocker
Cc1c(S(=O)(=O)N2CC(C)CC(C)C2)c(=O)n(C)c(=O)n1C (stereo not drawn),-24,13,-2,1,0.4,-28
CCN(C(=O)CSc1nnc(C)n1-c1ccc(C)cc1)c1c(N)n(Cc2ccccc2)c(=O)[nH]c1=O,-7,.,4,1,1.4,12
CCN(CCCNC(=O)CNC(=O)c1nn(-c2ccc(OC)cc2OC)c(=O)c2ccccc12)c1cccc(C)c1,-7,?,9,-12,0.0,-30
O=C1NC[C@@H](CCCCN2C[C@H](Cc3ccc(O)cc3)N(CC3CCCCC3)C(=O)C2=O)N(Cc2ccccc2)C1=O,.,.,12,0,-0.7,.
OC1(c2cccs2)CN(c2ccc(Br)cc2)C2=[N+]1CCCS2 (stereo not drawn),-17,1,-14,-10,3.4,9
O=C(NCc1ccccc1)c1cccc(F)c1F,10,-6,18,1,-0.6,-13
O=C(c1cc2c(s1)CCCC2)N1CCN(Cc2ccc3c(c2)OCO3)CC1,-39,-11,-11,-18,0.8,-11
Cc1ccc(S(=O)(=O)N2CCOCC2)cc1NC(=O)COC(=O)c1ccc(Br)o1,-15,.,1,-4,2.1,16
COc1ccc(CNC(=O)CN(C)S(=O)(=O)c2ccc(Br)s2)cc1,-2,-23,2,8,-0.6,-9
Cc1cc(=O)oc2cc(OC(C)C(=O)NC3CCN(Cc4ccccc4)CC3)ccc12 (stereo not drawn),-18,0,.,2,0.4,4
CCCCNC(=O)C1c2ccccc2OCC(=O)N1Cc1ccco1 (stereo not drawn),.,.,-1,6,-0.6,.
O=C(C[n+]1ccccc1)Nc1ccccc1Br,-3,6,4,-3,-0.8,1
CCOC(=O)C1(CCc2ccccc2)CCN(C2Cc3ccccc3C2)CC1,-19,2,-1,2,-0.9,4
O=C(NC(=S)NNC(=O)c1ccco1)c1ccccc1,-2,5,-4,-5,-0.5,13
O=C(CSc1ccccc1)Nc1ccc2sccc2c1,-13,-19,.,7,1.2,4
COCCN(CC(=O)Nc1cccc(C)c1C)C(=O)c1ccc(S(=O)(=O)N2CCOCC2)cc1,-3,2,-2,1,1.5,2
C=CCN1C(=O)C(Cc2ccc(OC)cc2)S/C1=N\N=C\c1cccs1 (stereo not drawn),14,-14,3,-1,-0.2,0
CCOc1ccc(NC(=O)c2cccnc2Cl)c([N+](=O)[O-])c1,30,3,1,-9,0.4,11
CCCCNC(=S)NNC(=O)c1csc(C(C)C)c1,-24,-10,7,0,-0.3,7
